rRNA inh HTS – inhibits bacterial ribosomal RNA function over humanized ribosomes | GFP signal change (wild-type ribosome), % (concentration not given with the values) | AID 720706 | E. coli WT GFP vs humanized-ribosome RFP mutants, fluorescence, 24 h; active compounds read low; DMSO median 0, no signal -100 | hit rate 1.6% among 350,000;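 active = significant combined selectivity score with lowered wild-type GFP, culture density cut under 30%, mutant RFP and density less affected; inactive = any of these conditions unmet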; also: one replicate is shown; some compounds called inactive have numbers as strong as hits
UCH37 inh – human UCH37 deubiquitinating enzyme inhibition. purified proteasome/UCH37, Ub-AMC cleavage fluorescence. inhibition, % (concentration not given with the values). Q9Y5K5. hit rate 0.33% among 330,000. AID 588478;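 active = mean of two replicates above 20%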;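 also: 0% = compound-free wells with enzyme and 100% = wells lacking proteasome; stock transfer was 100 nL into about 20 µL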
Target sequence (Q9Y5K5 whole entry, looked up): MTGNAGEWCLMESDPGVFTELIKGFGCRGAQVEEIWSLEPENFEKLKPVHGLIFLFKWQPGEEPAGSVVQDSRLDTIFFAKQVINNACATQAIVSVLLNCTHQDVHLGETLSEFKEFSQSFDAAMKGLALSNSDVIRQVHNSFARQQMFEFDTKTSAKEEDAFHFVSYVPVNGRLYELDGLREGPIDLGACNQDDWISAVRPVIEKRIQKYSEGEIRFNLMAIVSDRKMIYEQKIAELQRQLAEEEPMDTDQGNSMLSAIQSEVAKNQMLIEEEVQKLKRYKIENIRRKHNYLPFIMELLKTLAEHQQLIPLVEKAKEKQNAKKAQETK
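Schedule: 30 min plus 25 min, room temperature / Material: human UCH37 within purified proteasomes / Technique: AMC fluorescence intensity at 355/460 nm / Buffer or medium: pH 7.4 Tris-HCl (50 mM) with ovalbumin, ATP-MgCl2, DTT / Controls: wells without proteasome as full block, compound-free enzyme plus substrate as uninhibited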
Bfl-1 A1 inh – inhibitors of the anti-apoptotic protein A1, read as caspase activation | MEF A1-2A-BIM cells, Caspase-Glo 3/7 luminescence, 3 h; percent of clofoctol response, vehicle zero | caspase activation, % (test concentration not listed) | hit rate 0.066% among 330,000;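 active = over half of replicate activation scores above 10%, or exactly half above 10 with the replicate mean above 10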;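 also: wells of about 30 µL received 50 nL stock; many hits fall short of the cut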
AF4-AF9 inh – blocks AF4 peptide binding to human AF9 | P42568 | AlphaScreen, biotin-AF4 peptide binding to FLAG-AF9 | inhibition, % at 10 µM | hit rate 0.47% among 350,000;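 active = every replicate reaching a set inhibition limit, whatever the replicate mean, cut at about 25% in these data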;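 also: 0% = plate neutral control median and 100% = total signal loss; the record names both 10 and 1 µM as test concentration; the first replicate is given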
Target sequence (P42568 whole entry, looked up): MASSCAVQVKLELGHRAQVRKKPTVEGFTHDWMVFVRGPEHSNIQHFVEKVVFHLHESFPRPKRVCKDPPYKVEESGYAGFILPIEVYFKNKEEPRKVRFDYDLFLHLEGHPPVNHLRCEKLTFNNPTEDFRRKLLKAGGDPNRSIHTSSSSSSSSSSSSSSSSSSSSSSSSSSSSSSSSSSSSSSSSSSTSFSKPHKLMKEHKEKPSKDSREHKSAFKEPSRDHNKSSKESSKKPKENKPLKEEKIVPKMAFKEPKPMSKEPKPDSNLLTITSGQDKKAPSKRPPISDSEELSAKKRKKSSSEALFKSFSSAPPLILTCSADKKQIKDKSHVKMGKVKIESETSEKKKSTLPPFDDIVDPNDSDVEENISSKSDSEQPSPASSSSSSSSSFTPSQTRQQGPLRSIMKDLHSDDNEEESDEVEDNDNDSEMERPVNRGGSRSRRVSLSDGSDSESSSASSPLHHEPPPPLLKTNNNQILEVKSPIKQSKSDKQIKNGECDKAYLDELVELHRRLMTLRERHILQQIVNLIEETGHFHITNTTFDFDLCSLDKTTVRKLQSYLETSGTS
FGF22 binding – FGF22 (human) thermal shift binding | AID 651658 | Q9HCT0 | hit rate 1.5% among 340,000 | calls only at 9.99 µM | recombinant FGF22 thermal shift, SYPRO orange fluorescence; percent of sucrose octasulfate shift, DMSO zero;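 active = melting point raised past a set limit in the mean and every replicate; three in four hits are not shown here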
T cruzi repl – T. cruzi replication inhibition; T. cruzi beta-gal in NIH3T3, luminescence, 90 h; hit rate 1.4% among 300,000; AID 1885; inhibition, % (test concentration not listed);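 active = mean inhibition across valid replicates above about 55%, limit read from the data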;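 also: signal also drops with host cell toxicity which is not excluded here; 0% = plate median of DMSO wells and 100% = zero luminescence signal; higher percent means less beta-gal luminescence so fewer parasites; stock transfer was 50 nL into about 50 µL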
Beta cell apopt – blocks beta cell apoptosis. hit rate 0.8% among 300,000. INS-1E cytokine-induced death, ATP luminescence, 48 h; percent of positive-control rescue, neutral wells zero. protection from apoptosis, % (test concentration not listed);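 active = all replicates at 75% or more, or half of them and the mean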;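 also: 0% = cytokine-treated negative control wells and 100% = positive control rescue; higher means more ATP so stronger rescue from cytokine killing; wells of about 40 µL received 100 nL stock; the first replicate is given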
E coli growth – E. coli growth inhibition | Escherichia coli growth, OD600, 23 h; active compounds read low | hit rate 0.21% among 330,000 | OD600 absorbance (concentration not given with the values);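 active = OD600 absorbance below the run mean of sample wells minus 3.6 SD, in any replicate, cut at about 0.56 in these data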;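 also: stock transfer was 300 nL into about 60 µL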
rRNA inh HTS OD600 – also measured in rRNA inh HTS; calls as there; OD600 change, %; measured here: OD600 growth;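 optical density of the mix in the first replicate; 0 = DMSO median and -100 = no signal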
rRNA inh HTS RFP – recorded beside rRNA inh HTS, whose call it bears; RFP signal change, %; measured here: RFP humanized mutant strains;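 first replicate; 0 = DMSO median and -100 = no signal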
Numbers without * were called inactive; i = inactive; . = not tested or not shown. This is a subset; the hit share may differ from the screen's.

1: Cc1ccc(/C=C(\NC(=O)c2ccccc2)C(=O)OCc2ccccc2)cc1
2: O=C(Cc1ccccc1)Nc1nccs1
3: Cc1ccc2c(c1)c1nnc(SCC(=O)Nc3ccccc3C(F)(F)F)nc1n2CC(=O)O
4: N#Cc1c(N2CCOCC2)nc(N2CCCCC2)c2c1CCN(C1CCCCC1)C2
5: CCC(=O)NCCN1CCN(C(=O)CC)CC1
6: C/C(=N\NC(N)=O)c1ccccc1
7: Cc1cc(C)cc(NC(=O)Cn2cc3c(n2)CCCCC3)c1
8: O=C(O)CCCN1C(=O)C2C3CC(C2C1=O)C1C(c2ccccc2)c2sc(=O)[nH]c2SC31 (centres undefined)

Assay by compound	1	2	3	4	5	6	7	8
Beta cell apopt	-14	.	-3	5	-3	-7	-2	2
rRNA inh HTS	-18	-9	13	.	.	19	.	20
rRNA inh HTS RFP	-3.0	-1.5	0.8	.	.	0.5	.	-0.2
FGF22 binding	i	i	i	.	.	i	.	i
AF4-AF9 inh	-0.1	-0.9	0.3	.	.	-2.7	.	-3.7
E coli growth	0.74	0.68	0.67	0.72	0.65	.	0.77	0.69
rRNA inh HTS OD600	-17	-2	12	.	.	9	.	16
T cruzi repl	8	-13	-16	71*	0	-22	2	-17
UCH37 inh	4.0	2.0	6.9	-22	0.2	.	2.8	5.1
Bfl-1 A1 inh	1.8	0.5	0.5	0.4	1.7	0.2	-1.8	0.0

Profiles, quoted from the list. Order of screens: Beta cell apopt | rRNA inh HTS | rRNA inh HTS RFP | FGF22 binding | AF4-AF9 inh | E coli growth | rRNA inh HTS OD600 | T cruzi repl | UCH37 inh | Bfl-1 A1 inh
C/C(=N\NC(N)=O)c1ccccc1 across the screens: -7 | 19 | 0.5 | i | -2.7 | . | 9 | -22 | . | 0.2
O=C(O)CCCN1C(=O)C2C3CC(C2C1=O)C1C(c2ccccc2)c2sc(=O)[nH]c2SC31 (centres undefined) across the screens: 2 | 20 | -0.2 | i | -3.7 | 0.69 | 16 | -17 | 5.1 | 0.0
CCC(=O)NCCN1CCN(C(=O)CC)CC1 across the screens: -3 | . | . | . | . | 0.65 | . | 0 | 0.2 | 1.7

Molecules listed so far that have a COOH group:
3: Cc1ccc2c(c1)c1nnc(SCC(=O)Nc3ccccc3C(F)(F)F)nc1n2CC(=O)O
8: O=C(O)CCCN1C(=O)C2C3CC(C2C1=O)C1C(c2ccccc2)c2sc(=O)[nH]c2SC31 (centres undefined)

Assay by compound	3	8
Beta cell apopt	-3	2
rRNA inh HTS	13	20
rRNA inh HTS RFP	0.8	-0.2
FGF22 binding	i	i
AF4-AF9 inh	0.3	-3.7
E coli growth	0.67	0.69
rRNA inh HTS OD600	12	16
T cruzi repl	-16	-17
UCH37 inh	6.9	5.1
Bfl-1 A1 inh	0.5	0.0

Additional results.
9: Cc1ccc(C)c(OCC(=O)NCC2COc3ccccc3O2)c1 (centres undefined)
10: COc1ccc(Cl)cc1N(CC(=O)NCC(C)C)S(=O)(=O)c1ccc(C)c([N+](=O)[O-])c1
11: C/C(=N/NC(=O)CN1CCN(S(=O)(=O)c2ccc(Br)cc2)CC1)c1ccncc1
12: Cc1ccc(N=CC=C2OC(C)(C)C(C)(C)O2)c(C)c1
13: Cc1ccnc2nc(C(=O)NCc3cccs3)nn12
14: CSc1nsc(SCC(=O)Nc2ccc3c(c2)OCCO3)n1
15: Cc1nc(C)n(CC(=O)N2CCCC(C(=O)c3ccc(C(F)(F)F)cc3)C2)n1 (centres undefined)
16: C=CCNc1nc(NCCO)nc(N2CCCC2)n1

Assay by compound	9	10	11	12	13	14	15	16
Beta cell apopt	-6	2	.	-3	.	6	-1	.
rRNA inh HTS	-49	.	15	.	.	.	3	.
rRNA inh HTS RFP	-14	.	-0.4	.	.	.	1.0	.
FGF22 binding	i	.	i	.	.	.	i	.
AF4-AF9 inh	1.2	.	-5.0	.	.	.	-2.6	.
E coli growth	0.69	0.71	.	0.65	0.78	0.7	0.73	0.69
rRNA inh HTS OD600	-69	.	7	.	.	.	12	.
T cruzi repl	.	21	7	14	0	8	-13	3
UCH37 inh	0.9	4.7	.	-35	3.9	0.9	1.1	5.2
Bfl-1 A1 inh	-0.4	-0.2	.	0.5	-0.3	0.6	-0.2	0.4

17: CCOC(=O)N1CCC(NC(=O)CS(=O)(=O)Cc2nc(-c3ccc(C)cc3)oc2C)CC1
18: COc1cccc(C2/C(=C(\O)c3ccc(OC)c(OC)c3)C(=O)C(=O)N2c2cc(C)on2)c1 (centres undefined)
19: CCSc1nc2ccccc2n1C(=O)/C=C/c1ccc(OC)c(OC)c1
20: O=C(CC(=O)NCc1ccc(Cl)cc1)NCc1ccccc1
21: O=C(O)c1cc(O)c2c(c1)C(=O)c1cccc(O)c1C2=O
22: Cn1c(N)c(C(=O)CSc2nn(-c3ccc(F)cc3)c(=S)s2)c(=O)n(C)c1=O
23: CC1CCN(S(=O)(=O)c2nnc(NC(=O)c3cccc(Cl)c3)s2)CC1
24: Cc1cccc(C)c1NC(=O)C1CCN(C(=O)c2cccs2)CC1

Assay by compound	17	18	19	20	21	22	23	24
Beta cell apopt	0	7	-1	0	-2	-7	28	7
rRNA inh HTS	9	.	.	2	.	3	3	2
rRNA inh HTS RFP	-0.9	.	.	-0.1	.	3.2	-4.1	5.0
FGF22 binding	i	.	.	i	i	i	i	i
AF4-AF9 inh	-12	.	.	-4.4	-16	-1.0	7.5	-3.0
E coli growth	0.79	0.72	0.67	0.67	.	0.64	0.82	0.69
rRNA inh HTS OD600	16	.	.	10	.	3	10	4
T cruzi repl	-10	.	-20	-3	19	.	-7	-1
UCH37 inh	6.7	16	1.4	1.5	.	1.5	-0.3	4.2
Bfl-1 A1 inh	-0.9	-0.1	0.7	-0.1	-1.5	-0.4	0.5	1.1

25: COC(=O)CC1COc2ccccc2N1C(=O)c1ccc(C(C)(C)C)cc1 (centres undefined)
26: Cc1nc(CNC(=O)c2ccccc2OC2CCN(S(C)(=O)=O)CC2)cs1
27: Cc1ccc(CNC(=O)CN2C(=O)COc3ccc(S(=O)(=O)N4CCC(C)CC4)cc32)o1
28: COc1ccc(NC2(c3ccccc3)OC(=O)c3ccccc32)cc1 (centres undefined)
29: O=C(CSc1nnc(CNC(=O)c2c(F)cccc2F)o1)NCc1ccccc1Cl
30: O=C(O)C1Cc2ccccc2CN1S(=O)(=O)c1ccc(Cl)cc1 (centres undefined)
31: COc1ccc(CNC(=O)C(c2cccs2)N(Cc2ccco2)C(=O)Cc2cccs2)cc1 (centres undefined)
32: O=C(OCC(=O)N1c2ccccc2Sc2ccccc21)c1cccnc1

Assay by compound	25	26	27	28	29	30	31	32
Beta cell apopt	3	-2	-2	-3	-2	-2	4	1
rRNA inh HTS	.	16	15	-16	.	-2	.	6
rRNA inh HTS RFP	.	-1.1	1.9	-3.6	.	0.6	.	-0.1
FGF22 binding	.	i	i	i	i	i	.	i
AF4-AF9 inh	.	-1.5	0.1	-0.2	-1.2	-1.7	.	1.8
E coli growth	0.72	0.72	0.67	0.7	0.65	0.69	0.7	0.74
rRNA inh HTS OD600	.	-1	17	-18	.	-8	.	3
T cruzi repl	7	-13	6	2	-3	-6	2	1
UCH37 inh	-0.6	5.9	2.5	2.7	3.7	3.1	-2.3	-1.1
Bfl-1 A1 inh	-0.5	-0.1	1.6	-0.6	0.4	0.3	2.3	0.6

33: CN(C)CCN=Cc1c(O)n(Cc2ccc3c(c2)OCO3)c(=O)c2ccccc12
34: Cc1c(Cl)cccc1NC(=S)Nc1ccccn1
35: O=S(=O)(Nc1ccc(N2CCOCC2)cc1)c1ccccc1
36: O=C(O)CCCCCNC(=O)c1cccc(Br)c1
37: O=C1C=C(N2CCN(C(=O)c3ccccc3)CC2)C2(CCCCC2)O1
38: Cc1ccc(S(=O)(=O)N(CC(=O)NC2CCCCCC2)c2ccccc2F)cc1
39: CC(=O)N=c1c(C#N)cc2c(=O)n3ccccc3nc2n1Cc1ccccc1
40: O=C(NC1CCCc2ccccc21)c1ccccc1 (centres undefined)

Assay by compound	33	34	35	36	37	38	39	40
Beta cell apopt	0	-4	1	-5	4	-1	-5	.
rRNA inh HTS	-17	21	.	.	.	.	.	5
rRNA inh HTS RFP	-2.8	0.3	.	.	.	.	.	3.1
FGF22 binding	i	i	.	.	.	.	.	i
AF4-AF9 inh	19	0.0	.	.	.	.	.	-6.9
E coli growth	0.64	0.73	0.7	0.73	0.72	0.68	0.66	0.69
rRNA inh HTS OD600	-24	7	.	.	.	.	.	8
T cruzi repl	46	-18	-10	-1	-15	24	20	-1
UCH37 inh	3.6	2.9	-1.2	3.0	-1.6	2.0	-169	4.4
Bfl-1 A1 inh	0.1	1.0	0.6	-0.7	1.4	0.4	0.5	1.5

41: CCCCCC(=O)Oc1cccc(N2C(=O)C3CCCCC3C2=O)c1 (centres undefined)
42: CN1CC(=O)N2C(c3cccc([N+](=O)[O-])c3)c3[nH]c4ccccc4c3C[C@H]2C1=O (some centres undefined)
43: CCOP(=O)(c1ccc(N(C)C)cc1)C(O)c1cccnc1 (centres undefined)
44: CCN1CCN(c2ccc(S(=O)(=O)N3CCCCC3)cc2NC(=O)Cc2c(Cl)cccc2Cl)CC1
45: CCc1ccc(C(=O)C[n+]2cccc3cc(OC)ccc32)cc1
46: COc1ccc(CC(=O)Nc2ccc(/C(C)=N/NC(=O)c3ccc(OC)cc3OC)cc2)cc1
47: Cc1cccn2c(=O)c3cc(C(=O)NC4CCCC4)sc3nc12
48: CCOc1ccc(NC(=O)CSc2nccn(-c3ccc4c(c3)OCCO4)c2=O)cc1
49: COc1ccc(N2CCN(c3cc(C)nc4ccc(OC)cc34)CC2)cc1
50: CN(C)C(=O)c1ccc(NC(=O)c2ccccc2-c2ccccc2)cc1

Assay by compound	41	42	43	44	45	46	47	48	49	50
Beta cell apopt	1	1	-9	8	5	1	.	-6	2	.
rRNA inh HTS	10	7	5	2	11	.	0	-2	-7	1
rRNA inh HTS RFP	3.7	0.5	-0.2	-0.2	4.0	.	1.0	-0.3	0.6	-3.7
FGF22 binding	i	i	i	i	i	i	i	i	i	i
AF4-AF9 inh	-4.3	-1.1	1.2	0.7	4.2	-0.5	-1.3	1.1	34*	-6.2
E coli growth	0.72	0.71	0.69	.	0.64	.	0.7	0.71	0.69	0.7
rRNA inh HTS OD600	22	18	13	7	3	.	-4	8	-12	3
T cruzi repl	-6	-15	5	66*	43	-13	16	8	17	-4
UCH37 inh	3.1	4.7	0.7	.	-95	.	i	2.9	6.5	0.9
Bfl-1 A1 inh	0.8	-0.2	1.2	1.3	0.8	0.9	-2.4	-0.5	0.8	0.0

Screening results deposited in PubChem by several laboratories.
